SARS PLpro yeast – SARS-CoV PLP inhibition in yeast; S. cerevisiae expressing SARS-CoV PLpro, growth rescue; control for the full effect not named in the record; Potency, µM (series often up to 32.9 µM), without a hit: at the top dose activity, positive = growth rescue; 330,000 tested, 0.19% active; further: 0% is about no effect; nearly all actives have a fitted effect of over 55% in size; growth read by luminescence after 48 h
Lassa entry inh – blocks Lassa virus binding to or entry into cells | Lassa virus pseudotype entry inhibition, cell reporter; control for the full effect not named in the record | Potency, µM (titrated, usually from 37.9 µM), inactives show at the top dose activity change, negative = inhibition, hits mostly inhibitors | 300,000 tested, 1.2% active; active means well fitted inhibition curve with a large enough effect; inconclusive means small, poorly fitted or top-dose-only effect, or effect the other way; inactive means flat fitted curve, though single readings scatter; tested in HEK293 cells; further: on the % scale 0 is the no-effect control and ±100 the full control effect; nearly all actives have a fitted effect of over 50% in size; luciferase read-out
RE007 growth inh – less growth of the S. pombe RE007 Vpr strain. 360,000 tested, 0.21% active. Potency, µM (top dose mostly 92.2 µM), without a hit: top-dose activity change, negative = less growth. S. pombe RE007 Vpr strain, BacTiter-Glo ATP luminescence, 24 h; control for the full effect not named in the record; active = well fitted falling curve with a large enough effect; inconclusive = small, poorly fitted or top-dose-only effect; inactive = no such curve, though single readings can be large or run the other way;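 further: on the % scale 0 is the no-effect control and ±100 the full control effect; nearly all actives have a fitted effect of over 50% in size; the assay follows cell death caused by Vpr and the record does not say whether a fall means rescue or toxicity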
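Fission yeast RE007 carrying one integrated HIV-1 vpr copy, seeded at OD 0.01 in PMG+AL medium with 23 nL pinned compound. Grown 24 h at 30 degrees; viability read by BacTiter-Glo luminescence after 5 min.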
MARV entry inh – blocks Marburg virus binding to or entry into cells; Marburg virus pseudotyped entry inhibition, cell reporter; control for the full effect not named in the record; about a third of the inactives were read at about 46 µM; Potency, µM (titrated, usually from 37.8 µM), for the others: at the top dose activity change, negative = inhibition, hits mostly inhibitors; 300,000 tested, 1.8% active; AID 540276; active = well fitted inhibition curve with a large enough effect; inconclusive = small, poorly fitted or top-dose-only effect, or effect the other way; inactive = flat fitted curve, though single readings scatter; tested in HEK293 cells; about a fifth of its hits are not listed in these tables; further: on the % scale 0 is the no-effect control and ±100 the full control effect; luciferase read-out
Cruzain inh noDet – blocks cruzain activity in detergent-free assay. AID 1476. Potency, µM, for inactives: max response, negative = inhibition, usual class: inhibitors. P25779. purified cruzain, Z-FR-AMC fluorescence, no detergent. 200,000 tested, 2.3% active; active means well fitted curve in the direction sought with a large enough effect; inconclusive means small, poorly fitted or top-dose-only effect, or another doubt; inactive means no such curve, though single readings can be large; an effect the other way counts as inactive or inconclusive;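 further: plate controls were enzyme without inhibitor for no effect and buffer without enzyme for full effect; nearly all actives have a fitted effect of over 40% in size; top concentration of the series not given in the record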
Target sequence (P25779 123-467 limits assumed): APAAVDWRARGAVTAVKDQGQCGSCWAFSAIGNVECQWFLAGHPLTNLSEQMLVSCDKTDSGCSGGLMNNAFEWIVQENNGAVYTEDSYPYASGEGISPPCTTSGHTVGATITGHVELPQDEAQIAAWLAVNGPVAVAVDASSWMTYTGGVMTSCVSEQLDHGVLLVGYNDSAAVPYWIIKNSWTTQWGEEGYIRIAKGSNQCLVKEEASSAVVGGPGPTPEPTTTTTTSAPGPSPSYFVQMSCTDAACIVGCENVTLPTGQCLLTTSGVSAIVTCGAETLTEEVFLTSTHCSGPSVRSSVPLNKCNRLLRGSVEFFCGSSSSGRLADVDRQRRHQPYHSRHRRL
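Detergent-free condition (0.00005% Triton X-100) in acetate buffer pH 5.5 with DTT. 1.5 nM enzyme and compound were pre-mixed 15 min, then 2 uM Z-FR-AMC substrate added; reaction progress from fluorescence change between first and third reads (60 s).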
NS1 inh – influenza NS1 inhibition. S. cerevisiae slowed by influenza A NS1, growth recovery by OD600. Potency, µM (titrated, usually from 46.1 µM), for inactives: at the top dose activity, positive = more growth. 270,000 tested, 0.4% active; further: actives are rising curves; nearly all actives have a fitted effect of over 50% in size
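OD600 was taken as the measure of yeast growth restored by compound in an NS1-expressing S. cerevisiae strain. Cells had been washed out of glucose medium and diluted 1:100 into galactose -URA medium, pH 6.0.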
StopGo reporter – FMDV 2A StopGo reporter, luciferase signal; human cells with a luciferase reporter of 2A StopGo recoding; control for the full effect not named in the record; Potency, µM (highest dose often 57.9 µM), without a hit: top-dose signal change, negative = less light; 410,000 tested, 1.2% active; AID 1159524; active = well fitted falling curve with a large enough effect; inconclusive = small, poorly fitted or top-dose-only effect; inactive = no such curve, though single readings can be large or run the other way; tested in HEK293T cells; further: on the % scale 0 is the no-effect control and ±100 the full control effect; nearly all actives have a fitted effect of over 45% in size; luciferase light after 4 h
Cruzain Triton – cruzain (T. cruzi) inhibition with detergent. Potency, µM, for inactives: max response, negative = inhibition, most hits filed as inhibitors. 200,000 tested, 0.43% active. P25779. AID 1478. purified cruzain, Z-FR-AMC fluorescence, 0.01% Triton; active means well fitted curve in the direction sought with a large enough effect; inconclusive means small, poorly fitted or top-dose-only effect, or another doubt; inactive means no such curve, though single readings can be large; an effect the other way counts as inactive or inconclusive;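 further: plate controls were neutral wells for no effect and buffer without enzyme for full effect; nearly all actives have a fitted effect of over 40% in size; top concentration of the series not given in the record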
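Detergent-containing arm of a paired screen for aggregation-based inhibition: 0.01% Triton X-100 present. Cruzain at 1.5 nM cleaved 2 uM Z-FR-AMC at pH 5.5 with 5 mM DTT; AMC fluorescence gain over 60 s measured activity.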
An asterisk follows results filed as active; u = inconclusive; x = not tested or not shown; & = joins results of further samples; [ ] = dose if it differs, or a comment. Unless noted, the call rests on the fitted dose curve; in most records, active means well fitted rising curve with a large enough effect; inconclusive means small, poorly fitted or top-dose-only effect; inactive means no such curve, though single readings can be large or run the other way. Potency means the concentration at half of the fitted maximal effect.

Structure | SARS PLpro yeast | Lassa entry inh | RE007 growth inh | MARV entry inh | Cruzain inh noDet | NS1 inh | StopGo reporter | Cruzain Triton
Cc1ccc(C(=O)NC(C)c2nnc(SCC(=O)NC3CCCC3)n2C)cc1 (stereo not given) | -6% | 10% | 10% | 11% | x | 16% | -15% | x
COc1cccc(C2C(=O)N(C3CCCCC3)CC(=O)N2Cc2ccc(Cl)cc2)c1 (stereo not given) | x | -15%[46.1 µM] | x | x | -8% | x | 1% | -0.3%
CCOC(=O)C1=C(C)NC(C)=C(C(=O)OCCNC(=O)c2cccnc2)C1c1cccc([N+](=O)[O-])c1 (stereo not given) | 2% | -24% | -22% | u | 29% | -13% | -17% | -7.4%
Cc1ccc(S(=O)(=O)CCC(=O)OCc2ccc(Cl)cc2)cc1 | 5% | 24% | -5% | 1% | 5% | 10% | -7% | -2.7%
COc1ccc(CCC(=O)NC2CC(=O)N(c3cccc(F)c3)C2)cc1 (stereo not given) | x | 1%[46.1 µM] | x | x | 9% | x | -12% | 1.0%
COc1ccc(-n2ccn(Cc3ccc(C)cc3)c(=O)c2=O)cc1OC | x | 6%[46.1 µM] | x | x | -2% | x | -2% | -2.3%
O=C(COC(=O)c1cccc2ccccc12)Nc1cccnc1Cl | 9% | 0% | -13% | u | -4% | -19% | 8% | -4.0%
Cc1cc(C)nc(/N=C2/NC(=O)CS2)n1 | 9% | 22% | -6% | 1% | 1% | -5% | -14% | 8.8%
CCOCCn1c(N2CCCC2)nc2c1c(=O)[nH]c(=O)n2C | -6% | x | -1% | x | x | -21% | -2% | x
Cc1cc(C(=O)Nc2nc3c(s2)CCCC3)cs1 | 3% | u | -6% | u | -7% | 1% | -24% | -6.2%
CC(=O)c1ccc(NC(=O)c2ccn(C(=O)OCC(C)C)n2)cc1 | -11% | 3% | u | -2% | 5% | -2% | -7% | -2.6%
NS(=O)(=O)c1ccc(NC(=O)c2ccc(COc3ccccc3)o2)cc1 | 0% | -23% | -2% | 4%[46.1 µM] | x | x | -18% | x
O=C(CCCN1C(=O)c2cccc3cccc(c23)C1=O)NCCN1CCOCC1 | -1% | 2% | 5% | -1%[46.1 µM] | x | x | -15% | x
Cc1cc(C)cc(-n2c(SCC(N)=O)nc3c([nH]c4ccccc43)c2=O)c1 | x | u | x | x | -16% | x | -15% | -2.1%
O=S(=O)(c1ccc(C(F)(F)F)cc1)N1CCCN(c2ccc(C(F)(F)F)cn2)CC1 | 0% | 1% | -1% | -19%[46.1 µM] | x | 4% | -17% | x
COC(=O)CN(C(=S)Nc1ccc(F)cc1)C1CC(=O)N(c2ccc(OC)cc2)C1=O (stereo not given) | 1% | 2% | -11% | 0% | -8% | 15% | 9% | -1.3%
COc1ccc(C(=O)Nc2c(C)ccc3nsnc23)cc1[N+](=O)[O-] | -3% | -15% | x | u | -3% | 12% | 0% | -8.0%
CC(C)(CN1CCC(Cc2ccccc2)CC1)NS(=O)(=O)c1ccccc1 | -1% | x | -8% | x | x | -6% | u | x
C/C(=N\O)C(=O)NCCCn1ccnc1 | u | 11% | 4% | 20%[46.1 µM] | -1% | -3% | 0% | -1.5%
O=C(O)c1cccc(S(=O)(=O)Nc2ccccc2C(=O)NCCc2ccccc2)c1 | 4% | 4%[46.1 µM] | 10% | u | x | 16% | 16% | x
CNC(=O)c1csc(-c2ccncc2)n1 | 4% | -1% | 13%[3.69 µM] | 4% | -6% | -1% | -4% | 0.4%
Fc1ccc(Nc2nnns2)cc1 | 0% | -1% | 4% | 11% | x | -4% | -13% | x
CC(C)CCn1c(CN2CCN(Cc3ccccc3)CC2)nc2c1c(=O)[nH]c(=O)n2C | -16% | -4% | 24% | -18% | 7% | 2% | 6% | 8.4%
COc1ccc(CCC(=O)NCCc2csc(-c3ccc(Cl)cc3)n2)cc1 | x | u | x | x | 28% | x | u | -5.5%
CC(=O)c1cccc(NC(=O)CSc2nc(=O)n(Cc3ccccn3)c3c2CCC3)c1 | -1% | 6% | -2% | -4%[46.1 µM] | x | x | 3% | x
O=C(NCc1ccccc1)c1ccccc1Br | 2% | 13% | -5% | 4%[14.2 µM] | x | 0% | -6% | x
CCC1(N(C(C)=O)c2ccc(OC)cc2)C(=O)c2ccccc2C1=O | 8% | -10% | 4% | u | -2% | -2% | x | 0.1%
CCOC(=O)c1sc(NC(=O)/C=C/c2cnn(C)c2C)c(C(=O)OCC)c1C | 0% | x | x | x | u | -3% | x | -2.9%
COc1cc(C(=O)C(O)c2ccc(O)c(OC)c2)ccc1O (stereo not given) | x | 23% | -2% | -20% | x | x | -9% | x
COc1ccc(NC(=O)CN(C)CC(=O)Nc2ccc(Cl)cc2F)cc1 | -3% | -17%[46.1 µM] | 2% | -5%[46.1 µM] | x | x | -20% | x
CCN(CC)S(=O)(=O)c1ccc(S(=O)(=O)N2CCC(C(=O)NC3CCN(Cc4ccccc4)CC3)CC2)cc1 | 8% | x | -5% | u | x | -11% | -5% | x
CCC1=NN(C(=O)COc2ccccc2)C(O)(c2ccncc2)C1 (stereo not given) | -1% | 16% | -9% | -25%[46.1 µM] | x | 3% | -3% | x
COc1cccc(NC(=O)CN(Cc2ccccc2)S(C)(=O)=O)c1 | -5% | 7% | 3% | u | 6% | 4% | 0% | 1.8%
Cc1onc(-c2cccc(Cl)c2Cl)c1C(=O)O/N=C(\N)c1ccc([N+](=O)[O-])o1 | -7% | 8% | -3% | 12%[14.2 µM] | x | -3% | u | x
CC1(C(=O)NCc2ccccn2)C=CCN1C(=O)c1ccccc1 (stereo not given) | -2% | 13% | -7% | -1% | 4%&-7% | -13% | 20% | 1.8%&2.7%
COc1ccc(-c2[nH]ncc2/C=N/NC(=O)c2ccncc2)c(OC)c1 | 0% | 20% | 8% | -13% | x | 7% | -9% | x
COc1ccccc1C(=O)NC(CCSC)C(=O)NCC(c1ccccc1OC)N1CCCC1 (stereo not given) | -2% | u | -22% | -25% | x | x | -17% | x
COC(=O)c1cc2occc2n1CC(=O)Nc1ccc(C(C)C)cc1 | x | x | x | 6%[46.1 µM] | 2% | x | 4% | 0.2%
CC(=O)c1ccc(N2C(=O)Nc3ccccc3S2(=O)=O)cc1 | x | 26%[46.1 µM] | x | x | -3% | x | 38%[activator] | -0.5%
O=C(Nc1ccc2oc(=O)ccc2c1)c1ccco1 | -8% | 6% | -30% | 21% | -4% | -46% | 65%[activator] | 1.3%
O=C(CN1CCN(c2ccccc2F)CC1)NCc1ccc(Cl)cc1 | 4% | u | -11% | 0%[46.1 µM] | x | -13% | -12% | x
Cc1ccc(C(c2nnnn2C2CCCC2)N2c3ccccc3CC2C)cc1 (stereo not given) | -38% | 1% | -5% | -17% | u | 4% | 12% | -2.0%
c1ccc(Nc2nn[nH]n2)cc1 | 0% | 4% | -3% | 13% | 2% | 1% | x | 0.9%
O=C(Nc1ccc(Cl)cc1)c1cccc(S(=O)(=O)Nc2ccccn2)c1 | -3% | u | 1% | -12% | x | 7% | 31%[activator] | x
N#CCCSCc1ccc(OCC(=O)O)cc1 | 4% | -15% | -2% | 17%&17% | -4% | 8% | 0% | -0.9%
N#Cc1ccc(-c2nc3cc(Cl)ccc3c(=O)n2O)cc1 | -6% | x | u | x | x | -77% | u | x
C/C(=N\NC(=O)CN1CCN(Cc2ccccc2)CC1)c1cccs1 | 0% | x | -1% | x | x | -4% | -22% | x
O=C(COC(=O)C12CC3CC(CC(C3)C1)C2)Nc1ccccc1F | -33% | -17% | 1% | u | -3% | -15% | -4% | -3.5%
CC(=O)Nc1ccc(-c2cc3ccccc3o2)cc1 | -5% | -2% | 35% | u | 3% | -16% | 35% | -0.1%
COCCSc1nnc(NC(=O)c2cc(C(=O)OC)cc([N+](=O)[O-])c2)s1 | 0% | x | -11% | -13%[46.1 µM] | x | 5% | u | x
COc1ccc(NC(=O)c2ccc(CNc3c(N4CCCC4)c(=O)c3=O)cc2)cc1Cl | 2% | -15% | -16% | -2%[46.1 µM] | x | 6% | 1% | x
COc1cc2[nH]c3c(=O)n(CCN4CCOCC4)cnc3c2cc1OC | -1% | 0% | -1% | 3%[46.1 µM] | x | 5% | 5% | x
COc1ccc(/C=C/C(=O)NC(=S)N2CCCC(C(N)=O)C2)cc1 (stereo not given) | -4% | -9%[46.1 µM] | 26% | 0%[46.1 µM] | x | 20% | -9% | x
COCCNC(=O)C(c1ccc(C)cc1)N(C(=O)CCC(=O)Nc1ccccn1)c1cccc(C)c1 (stereo not given) | 0% | -10%[46.1 µM] | 6% | u | x | -1% | -16% | x
CCCC(=O)C1=C(O)C(C(=O)OC)C(C)(C)CC1=Nc1ccc(OC)cc1 (stereo not given) | 1% | -1%[46.1 µM] | -2% | u | x | x | 21% | x
O=C(CSc1nnc(CNC(=O)c2ccc(F)cc2)o1)Nc1nccs1 | 5% | -17% | 17% | 2% | x | 11% | -8% | x
CCCOc1ccc(/C=C2\SC(=S)N(CC3CCCO3)C2=O)cc1 (stereo not given) | 9% | -2% | 6% | u | 0% | -4% | -15% | -4.7%
Cc1c(C#N)c(O)[nH]c(=O)c1N=Nc1ccc(S(N)(=O)=O)cc1 | 1% | 0%[46.1 µM] | -2% | 4%[46.1 µM] | x | 2% | -6% | x
COc1ccc(CCNC(=O)Cn2cnc3c(nnn3Cc3ccccc3F)c2=O)cc1OC | 7% | 7% | 13% | 14% | 14% | 7% | x | -1.3%
O=C(Cc1ccccc1F)Nc1cccc2cccnc12 | 15% | u | -25% | 7% | 3% | -7% | 26% | -5.6%
O=C(NP(=O)(N1CC1)N1CC1)c1cc(I)ccc1I | x | -2% | 0% | -4% | x | x | -22% | x
CC(=O)c1ccc(Nc2nc3ccccc3nc2NS(=O)(=O)c2cccs2)cc1 | -4% | x | -6% | x | x | 10% | u | x
